CSC inhib: blocks cancer stem cells; cancer stem cell-like cells viability, luminescence; inhibition, % at 7.5 µM; actives 1.1% (n = 300,000); AID 2717;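 active = mean at 75% or more and at least half the replicates too; tested in HMLE shEcad cells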;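 note: 0% = median of negative and 100% = median of positive control wells; the first replicate is given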
MT1-MMP act inh: inhibitors of human MT1-MMP activation. P50281. HT1080 RFP-PRO-GFP cells, GFP/RFP ratio fluorescence, overnight; percent of plate control window, DMSO zero. GFP/RFP ratio change, % at 20 µM. actives 0.061% (n = 360,000);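 active = GFP/RFP ratio change of at least 30% with cell ATP level not reduced by more than half and red fluorescence within 50% of control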; note: strong numbers were not always called active
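Assay system: HT1080 RFP-PRO-GFP cells. Benchmarks: DMSO vehicle wells and RFP-L50D-GFP reporter cell wells. Times: overnight cell settling, then overnight compound exposure, 37 °C, 5% CO2. Compound: 20 µM single dose, 1% DMSO. Read-out basis: GFP/RFP fluorescence ratio.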
PABP FP inh: PABP-poly(A) binding inhibition | actives 1% (n = 290,000) | P11940 | PABP-poly(A) RNA binding, fluorescence polarization | inhibition, % at 35 µM;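 active = 50% or more with normal probe brightness, or confirmed in later tests; about a fifth of its hits are not listed in these tables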;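 note: calls also rest on retests at 20 µM and on dose response follow-up; controls were probe without protein and protein plus probe with vehicle; some compounds called inactive have numbers as strong as hits; many hits fall short of the cut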
eIF4H inh: inhibitors of RNA binding by human eIF4H | inhibition, % at 35 µM | actives 0.94% (n = 290,000) | AID 2012 | eIF4H fluorescence polarization binding assay;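 active = 50% or more with normal probe brightness, or confirmed in later tests; about a fifth of its hits are not listed in these tables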;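 note: calls also rest on retests at 20 µM and on dose response follow-up; 0% = protein and probe with vehicle and 100% = probe without protein; strong numbers were not always called active; many hits fall short of the cut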
Env fusion inh: HIV envelope-mediated fusion inhibition; HeLa-JRFL Env/CEM21 cell fusion, luciferase; inhibition, % at 12.3 µM; actives 1.1% (n = 360,000); AID 651610;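 active = mean replicate inhibition score of at least 50 and every replicate individually at or above 50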;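 note: 0% = plate neutral controls and 100% = maraviroc near 300 nM; one replicate is shown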
UUG fidelity: yeast start codon fidelity modulation | S. cerevisiae UUG-firefly luciferase reporter, luminescence/redox ratio | activity score, % at 18.7 µM | actives 0.13% (n = 350,000) | AID 602363;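 active = replicate mean at a twofold rise or more, about +100% in these data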;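 note: firefly luciferase made from a UUG start codon reports start codon fidelity; reporter light over untreated wells divided by growth signal over untreated wells; some hits fall short of that in this replicate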
Rce1 inhib: yeast Ras-converting enzyme inhibition; yeast membranes, quenched prenylated peptide cleavage fluorescence; actives 0.27% (n = 290,000); Q03530; calls only;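 active = fall in fluorescence gain of 50% or more versus controls, with final raw signal at or below 3038400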;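 note: plate controls were neutral control wells for no effect and wells lacking membranes for full effect; tested at 10 µM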
Target sequence (Q03530 whole entry, looked up): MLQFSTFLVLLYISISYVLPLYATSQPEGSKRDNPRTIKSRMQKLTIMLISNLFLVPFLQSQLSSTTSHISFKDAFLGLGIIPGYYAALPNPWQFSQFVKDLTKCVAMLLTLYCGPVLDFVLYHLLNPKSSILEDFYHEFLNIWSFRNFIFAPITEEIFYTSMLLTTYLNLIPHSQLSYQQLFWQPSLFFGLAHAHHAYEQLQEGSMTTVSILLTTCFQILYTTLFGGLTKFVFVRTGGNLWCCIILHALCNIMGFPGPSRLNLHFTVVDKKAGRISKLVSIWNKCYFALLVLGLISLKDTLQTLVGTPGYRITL
MT1-MMP act inh RFP: further read-out of MT1-MMP act inh, marked with its call; RFP signal change, %; measured here: RFP expression control read;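 0 = vehicle wells; hits needed this value within 50% of zero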
* marks the source's active call; other numbers are inactive results; i = inactive; nt = no result given. No enrichment for hits; any-hit rate near 3%.

SMILES | CSC inhib | MT1-MMP act inh | MT1-MMP act inh RFP | PABP FP inh | eIF4H inh | Env fusion inh | UUG fidelity | Rce1 inhib
CCCc1cc(=O)oc2cc(OC(C)C(=O)NCC3CCC(C(=O)O)CC3)ccc12 (centres undefined) | -15.3 | -1.7 | 1.8 | 6.1 | 7.0 | nt | 2.6 | i
CC(C)CCn1c(SCCN2CCOCC2)nc2c1c(=O)[nH]c(=O)n2C | -16.0 | -5.9 | -5.6 | -6.2 | -2.6 | -35.4 | -3.5 | i
Cc1ccc(OCCn2cnc3c2c(=O)n(C)c(=O)n3C)cc1 | -0.8 | 2.1 | -18.8 | -3.4 | -3.5 | -3.4 | -13.2 | i
CCN1CCN(C(=S)c2ccc(SC)cc2)CC1 | -14.8 | 0.4 | 6.9 | 0.0 | -12.6 | -42.3 | -7.0 | i
COC(=O)[C@H](Cc1ccccc1)NC(=O)NC(C)CCc1ccccc1 (some centres undefined) | -14.5 | -2.0 | -1.6 | 6.8 | -7.0 | -4.2 | -2.2 | i
CCCC1=C(C(=O)OCC)C(c2ccccc2OC)NC(=O)N1 (centres undefined) | -4.1 | -6.2 | -5.3 | -6.5 | -12.6 | nt | -22.7 | i
Cc1ccc(NC(=O)c2cccs2)cc1NC(=O)c1ccco1 | 5.5 | 0.7 | 2.7 | -15.3 | 0.8 | 10.2 | -16.4 | i
CCn1nc(C(=O)N2CCc3ccccc32)c2ccccc2c1=O | 1.2 | -0.4 | 2.5 | nt | nt | -7.9 | -3.6 | nt
CCOC(=O)C1CCCN(C(=O)c2cccc(Cl)c2)CC1 (centres undefined) | nt | 0.4 | 1.2 | nt | nt | -6.9 | -6.8 | nt
O=C(Nc1nnc(C2CC2)s1)c1ccc(Cl)c(S(=O)(=O)N2CCc3ccccc3C2)c1 | -9.5 | -2.4 | -23.9 | -6.8 | -3.2 | nt | nt | i
N#CCCN(C(=O)COC(=O)CNC(=O)c1cccs1)c1ccc(F)cc1 | -7.0 | 2.2 | 7.9 | nt | nt | -7.1 | nt | i
CCCCN1C(=O)C(NC(C)=O)c2ccccc21 (centres undefined) | -6.5 | -0.8 | 1.0 | -7.0 | -16.3 | -14.0 | -15.1 | i
O=C(Nc1ccccc1C(=O)O)c1cc(S(=O)(=O)Nc2cccc(F)c2)ccc1Cl | -2.7 | -1.1 | -1.1 | 8.8 | -4.6 | -38.3 | -7.5 | i
Cc1ccc(S(=O)(=O)c2nc(NC3CCS(=O)(=O)C3)sc2Cl)cc1 (centres undefined) | -7.0 | 3.5 | -1.7 | 1.4 | -5.5 | nt | -13.0 | i
CCOP(=O)(O)c1ccccc1OCCOc1ccccc1P(=O)(O)OCC | -7.8 | 2.6 | 6.2 | 6.0 | -5.3 | nt | nt | i
O=C(/C=C/c1ccco1)N(Cc1cccc(Br)c1)C1CCS(=O)(=O)C1 (centres undefined) | -2.7 | -4.8 | -1.2 | 6.6 | 31.2 | 15.9 | 7.7 | i
CC(C)N(C(=O)CSc1nc2ccccc2n1-c1ccccc1)C(C)C | 77.5* | -5.8 | -10.4 | 2.0 | 3.9 | 29.1 | -5.7 | i
COC(=O)CN1C(=O)C(C)(C)Oc2ccc(C(=O)NC3CCCC3)cc21 | -9.2 | -1.6 | 1.6 | 3.8 | -5.8 | -5.4 | 4.8 | i
O=C(CCS(=O)(=O)c1ccc(Cl)cc1)N1CCCc2ccccc21 | 9.2 | -3.1 | -2.3 | 2.8 | 3.3 | -30.3 | -12.1 | i
CCC1(C)Cc2c(sc3nn[nH]c(=O)c23)CO1 (centres undefined) | -1.0 | -3.6 | -1.5 | -10.0 | -2.6 | nt | -20.1 | i
COc1ncnc(OC)c1S(=O)(=O)NCc1ccccc1 | -16.0 | -0.6 | 1.0 | -7.1 | -0.4 | 4.5 | 11.6 | i
COc1ccc(CNC(=O)N2CCc3nc(Nc4cc(OC)c(OC)c(OC)c4)ncc3C2)cc1 | nt | 11.5 | 3.7 | nt | nt | 2.9 | -11.0 | nt
Cc1ccc(-n2c(O)c(/C=N/Nc3ccc(S(=O)(=O)N4CCOCC4)cc3[N+](=O)[O-])c3ccccc3c2=O)c(C)c1 | -7.9 | -8.2 | -38.0 | -5.5 | -7.0 | nt | nt | i
O=C(NCCc1c[nH]c2ccccc12)C1CCN(S(=O)(=O)c2ccccc2)CC1 | 6.3 | -0.7 | 0.1 | 6.2 | 5.8 | -22.8 | -3.9 | i
COc1ccc(C(=O)NC(=S)NCc2cccnc2)cc1Cl | -7.4 | -1.8 | -4.9 | 1.5 | -2.4 | -17.9 | -2.6 | i
O=C(CN1C(=O)/C(=C2/SC(=S)N(CCS(=O)(=O)O)C2=O)c2ccccc21)Nc1cccc(C(F)(F)F)c1 | -1.1 | 1.5 | 3.9 | nt | nt | 4.6 | -8.8 | nt
CSc1ccccc1NC(=O)COc1ccc2c(c1)OCO2 | 2.0 | 0.2 | 0.5 | nt | nt | nt | 9.9 | nt
COc1ccc(C)cc1-n1nnnc1SCC(=O)Nc1cccnc1Cl | -9.4 | 7.6 | 1.7 | -10.7 | -5.2 | 2.7 | -5.2 | i
CCCOc1ccccc1-c1nc2c([nH]1)c(=O)[nH]c(=O)n2C | 2.1 | -0.9 | 2.9 | 7.3 | 15.4 | nt | -11.3 | nt
O=C(O)CC(c1ccc(OC2CCCC2)cc1)N1C(=O)c2ccccc2C1=O (centres undefined) | -6.2 | 0.3 | 0.1 | 5.9 | -5.9 | -3.0 | -16.6 | i
CCN(c1ccccc1)S(=O)(=O)c1csc(C(N)=O)c1 | -14.4 | 0.4 | 3.4 | 8.1 | -8.3 | 2.0 | -12.8 | i
O=C(Nc1cnc2sc3c(n2c1=O)CCCC3)c1ccc(F)cc1 | -12.6 | 3.5 | -1.6 | -3.8 | 2.6 | nt | nt | i
COc1ccc(NS(=O)(=O)c2cccc(C(=O)N3CCN(Cc4ccc5c(c4)OCO5)CC3)c2)cc1 | 2.3 | -0.6 | -7.3 | nt | nt | 18.0 | -4.3 | i
Cn1c(N)c(-c2ccccc2)c2ccc([N+](=O)[O-])cc2c1=O | 4.9 | -104.9 | -8.8 | -7.6 | 3.3 | 32.6 | -1.0 | i
O=C(CSc1nnc(CNc2ccccc2)o1)N1CCN(C(=O)c2ccco2)CC1 | -3.0 | -1.9 | 2.5 | -3.8 | 6.4 | nt | 2.8 | i
Cc1ccc(C)c(NC(=O)COC(=O)c2ccc3c(c2)OCCO3)c1 | 5.1 | -1.5 | 2.0 | nt | nt | nt | -17.1 | nt
CC(=O)C1=NN(c2ccccc2)C(c2cccs2)N1c1ccc(N(C)C)cc1 (centres undefined) | 2.2 | -1.5 | -16.2 | -13.7 | -10.6 | 23.6 | -17.6 | nt
Cc1cc(C)n(-c2nnc(C)n2/N=C/c2cc(Br)ccc2OCc2ccccc2)n1 | -9.3 | 3.3 | -5.2 | -4.7 | 9.3 | nt | -9.8 | i
CCN(C(=O)/C=C/c1ccc2c(c1)OCO2)c1ccccc1 | 1.1 | -4.5 | -3.6 | -4.5 | -1.6 | -6.7 | nt | i
CCC(C(=O)NC1CCCC1)n1c(SCc2cccc(C)c2)nc2ccncc21 (centres undefined) | -0.9 | -0.8 | -1.8 | -7.7 | -3.6 | 6.9 | -25.1 | i
CCOc1cc(/C=N/Nc2ccc(C(=O)O)cc2)ccc1OC(=O)c1ccccc1C | 4.5 | -3.4 | -6.0 | 11.4 | 18.6 | -54.4 | nt | i
COc1ccc(S(=O)(=O)N(Cc2nc3ccccc3c(=O)[nH]2)C2CCCC2)cc1 | -7.2 | -3.5 | -3.4 | 6.2 | -5.0 | nt | 14.5 | i
CC(C)Sc1oc(-c2ccco2)nc1S(=O)(=O)c1ccccc1 | 3.9 | -9.1 | -3.0 | -8.4 | 4.7 | nt | -4.3 | i
O=C(CCn1c(=O)oc2ccccc21)Nc1cccc(Br)c1 | -3.4 | -6.6 | 1.5 | -7.0 | 0.0 | -5.6 | 7.6 | i
COc1ccc(CN(C)Cc2nc(Cc3cccc(F)c3)no2)c2cccnc12 | 7.2 | 4.7 | -26.8 | 2.0 | -9.2 | 36.2 | nt | i
Cc1ccc(Cl)cc1NC(=O)c1cc(S(=O)(=O)N2CCOCC2)cn1C | -3.3 | 5.4 | 2.9 | 1.5 | -0.1 | 37.7 | -1.6 | i
COC(=O)C1=C(C)NC(=O)CC1c1cc(Br)ccc1F (centres undefined) | nt | 0.1 | -0.8 | -2.9 | 4.0 | nt | -28.7 | i
CCOC(=O)c1[nH]c2ccc(F)cc2c1N=C(C)N(CC)CC | -12.7 | 12.1 | 3.5 | 6.2 | -2.2 | nt | -7.8 | i

Record cards, as listed above. Screens in order: CSC inhib	MT1-MMP act inh	MT1-MMP act inh RFP	PABP FP inh	eIF4H inh	Env fusion inh	UUG fidelity	Rce1 inhib
Shown for `CC(=O)C1=NN(c2ccccc2)C(c2cccs2)N1c1ccc(N(C)C)cc1` (centres undefined) = 2.2	-1.5	-16.2	-13.7	-10.6	23.6	-17.6	nt
Shown for `Cc1ccc(Cl)cc1NC(=O)c1cc(S(=O)(=O)N2CCOCC2)cn1C` = -3.3	5.4	2.9	1.5	-0.1	37.7	-1.6	i

(continued)
SMILES | CSC inhib | MT1-MMP act inh | MT1-MMP act inh RFP | PABP FP inh | eIF4H inh | Env fusion inh | UUG fidelity | Rce1 inhib
CCCc1cc(=O)[nH]c2nnc(SCC(=O)N3CC(C)OC(C)C3)n12 (centres undefined) | -2.2 | 4.3 | 2.3 | nt | nt | nt | nt | i
CCOc1ccccc1N1CCN(CC(=O)Nc2nnc(CC)s2)CC1 | -3.3 | 0.7 | -2.1 | -4.3 | -1.0 | nt | -30.3 | i
O=C(NCC(c1cccs1)N1CCOCC1)c1cc(S(=O)(=O)N2CCOCC2)ccc1F (centres undefined) | 28.0 | 2.4 | 1.3 | nt | nt | -3.7 | nt | i
O=C(NCc1ccco1)c1cc([N+](=O)[O-])ccc1Cl | -5.3 | 1.1 | 2.3 | 0.9 | -1.8 | 8.1 | nt | i
OCC[C@@H]1C[C@H](O)[C@@H](O)[C@]2(OCc3ccc4ccccc4c32)O1 | nt | 1.5 | -1.0 | nt | nt | -7.5 | -4.1 | nt
COc1cc(O)c(C(CCN2CCCCC2)c2ccc(N(C)C)cc2)c(OC)c1 (centres undefined) | -9.1 | -4.3 | 3.1 | -6.2 | -18.3 | 56.5* | -7.0 | i
CC(=O)Nc1ccc(S(=O)(=O)N2CCN(CC3CC4C=CC3C4)CC2)cc1 (centres undefined) | 1.0 | 1.4 | -2.0 | 6.7 | 0.2 | -1.0 | nt | i
CC(=O)c1cnc2nc(SCc3ccccc3)nn2c1C | -5.7 | -0.2 | 2.1 | -7.1 | -4.8 | -25.8 | -5.3 | i
N/C(Cn1cncn1)=N\OC(=O)c1ccc(Cl)cc1 | -4.0 | -1.5 | 0.1 | -5.6 | 5.8 | -0.7 | nt | i
Cc1cccc(NC(=S)NNC(=O)c2cc3c(s2)CCC(C)C3)c1C (centres undefined) | nt | 3.1 | 2.8 | 7.4 | 4.7 | 6.6 | -21.8 | i
CCC1(CC)NC(=O)N(CC(=O)NC(=O)NCc2ccccc2)C1=O | -0.4 | -0.2 | 0.9 | 23.4 | -2.4 | 14.2 | -14.3 | i
O=C(NCc1ccc2c(c1)OCO2)C1CCCN(S(=O)(=O)c2cccc3nonc23)C1 (centres undefined) | -0.9 | -3.5 | 0.0 | -1.5 | -8.2 | nt | nt | i
O=C(COc1ccc(Br)cc1Cl)NC1CCCCC1 | 15.3 | -5.6 | -18.1 | 7.3 | 6.2 | 7.1 | nt | i
O=C(CSc1nc2ccc(Cl)cc2[nH]1)c1c[nH]c2ccccc12 | -1.7 | -4.2 | -1.5 | -13.0 | 3.8 | -2.5 | -5.7 | i
CN(C)C(=S)Nc1nc2ccccc2s1 | nt | 3.9 | -15.3 | 10.9 | 7.3 | -22.7 | nt | i

High-throughput results: PubChem BioAssay, several laboratories
